High-throughput results from PubChem BioAssay.
A1 apoptosis 2 = A1 inhibitors via caspase activation, primary screen, cell-based, luminescence, HTS, two replicates | MEF A1-2A-BIM cells, caspase-Glo luminescence, 3 h; percent of clofoctol response, DMSO zero | caspase activation, % (test concentration not listed) | 24,000 tested, under 10 active; in the data active means caspase activation above about 5.9%;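 further: wells of about 30 µL received 50 nL stock; the first replicate is given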
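System: mouse embryonic fibroblasts co-expressing A1 and BIM (A1-2A-BIM), primed for A1 dependence; amount: 2500 cells/well; doses: 50 nL pinned compound; schedule: cells settled overnight, compound exposure 3 h at 37 °C, 5% CO2; detection: Caspase-Glo 3/7 luminescence, 1 h at room temperature; read-out: Caspase-3/7 activation, seen as rise in luminescence signal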
* hit, by the source's call. Only part of the results is shown, so the mix of outcomes need not match the whole.

SMILES	A1 apoptosis 2
CC1(C)COC(CCC/C=N/NC(=O)c2ccccn2)OC1	0.1
CNC[C@@H]1Oc2ccc(N(C)C)cc2CC(=O)N([C@H](C)CO)C[C@@H]1C	0.4
COc1ccc([Si](C)(C)[C@H]2[C@H](CCn3cc([C@H](O)c4ccccc4)nn3)O[C@@]3(C(=O)N(C)c4ccccc43)[C@@H]2C)cc1	-0.9
C[C@@H]1CCCCO[C@H](CN(C)Cc2ccc3c(c2)OCO3)[C@@H](C)CN([C@@H](C)CO)C(=O)c2cc(NC(=O)Nc3ccccc3)ccc2O1	0.2
C[C@H]1CN([C@@H](C)CO)C(=O)Cc2cc(NS(=O)(=O)c3cccs3)ccc2O[C@@H]1CN(C)CC1CCCCC1	0.8
C[C@H](CO)N1C[C@H](C)[C@@H](CN(C)C(=O)Nc2cccc3ccccc23)Oc2ccc(NC(=O)C3CC3)cc2C1=O	-1.3
C[C@H](CO)N1C[C@H](C)[C@H](CN(C)Cc2ccncc2)Oc2ccc(NC(=O)Cc3cn(C)c4ccccc34)cc2CC1=O	0.5
C[C@@H]1CN([C@H](C)CO)C(=O)c2cc(NC(=O)Nc3ccc(C(F)(F)F)cc3)ccc2O[C@H]1CN(C)S(=O)(=O)c1ccccc1	-0.6
C[C@H](CO)N1C[C@H](C)[C@@H](CN(C)C(=O)Nc2ccccc2)Oc2ccc(NS(=O)(=O)c3cccs3)cc2CC1=O	0.1
COc1ccc(NC(=O)Nc2ccc3c(c2)C(=O)N([C@@H](C)CO)C[C@@H](C)[C@H](CN(C)C(=O)Nc2c(C)noc2C)O3)cc1	1.2
COc1ccc(NC(=O)Nc2cccc3c2O[C@@H](CN(C)S(=O)(=O)c2ccc(OC)cc2)[C@@H](C)CN([C@@H](C)CO)C3=O)cc1	-0.5
C[C@H]1CN([C@@H](C)CO)C(=O)Cc2cc(NS(=O)(=O)c3ccc(F)cc3)ccc2O[C@@H]1CN(C)S(=O)(=O)c1cccs1	-1.5
CNC[C@@H]1Oc2ccc(N)cc2C(=O)N([C@@H](C)CO)C[C@H]1C	1.0
Cc1ccc(S(=O)(=O)Nc2ccc3c(c2)C(=O)N([C@@H](C)CO)C[C@@H](C)[C@@H](CN(C)C(=O)Nc2ccc(C(F)(F)F)cc2)O3)cc1	1.1
CC(C)NC(=O)Nc1ccc2c(c1)CC(=O)N([C@@H](C)CO)C[C@H](C)[C@H](CN(C)CC1CC1)O2	0.1

Sorted by molecular weight (descending): part of the list above.
SMILES	A1 apoptosis 2
C[C@@H]1CN([C@H](C)CO)C(=O)c2cc(NC(=O)Nc3ccc(C(F)(F)F)cc3)ccc2O[C@H]1CN(C)S(=O)(=O)c1ccccc1	-0.6
C[C@H]1CN([C@@H](C)CO)C(=O)Cc2cc(NS(=O)(=O)c3ccc(F)cc3)ccc2O[C@@H]1CN(C)S(=O)(=O)c1cccs1	-1.5
C[C@H](CO)N1C[C@H](C)[C@@H](CN(C)C(=O)Nc2cccc3ccccc23)Oc2ccc(NC(=O)C3CC3)cc2C1=O	-1.3
CNC[C@@H]1Oc2ccc(N)cc2C(=O)N([C@@H](C)CO)C[C@H]1C	1.0

Returning to the listing, repeating the 3 entries before the break.
SMILES	A1 apoptosis 2
CNC[C@@H]1Oc2ccc(N)cc2C(=O)N([C@@H](C)CO)C[C@H]1C	1.0
Cc1ccc(S(=O)(=O)Nc2ccc3c(c2)C(=O)N([C@@H](C)CO)C[C@@H](C)[C@@H](CN(C)C(=O)Nc2ccc(C(F)(F)F)cc2)O3)cc1	1.1
CC(C)NC(=O)Nc1ccc2c(c1)CC(=O)N([C@@H](C)CO)C[C@H](C)[C@H](CN(C)CC1CC1)O2	0.1
Cc1noc(C)c1NC(=O)Nc1ccc2c(c1)C(=O)N([C@@H](C)CO)C[C@H](C)[C@H](CN(C)S(=O)(=O)c1ccc(Cl)cc1)O2	-0.3
COC(=O)[C@H]1[C@@H]2COc3ccccc3[C@H]2N[C@H]1C(=O)OC	0.2
C[C@H](CO)N1C[C@H](C)[C@H](CN(C)S(=O)(=O)c2ccc(F)cc2)Oc2ccc(NC(=O)Cc3ccccc3)cc2C1=O	-0.6
O=C(C1=C[C@H](c2ccc(C(F)(F)F)cc2)C[C@H](OCc2ccc(CO)cc2)O1)N1CCOCC1	-0.3
C[C@H]1CN([C@@H](C)CO)C(=O)c2cccc(NS(=O)(=O)c3ccc(Cl)cc3)c2O[C@@H]1CN(C)Cc1ccccc1	-1.0
C[C@@H]1CN([C@H](C)CO)C(=O)Cc2cc(NS(C)(=O)=O)ccc2O[C@@H]1CN(C)CC1CCCCC1	-0.6
C[C@@H]1CN([C@@H](C)CO)C(=O)c2cc(NC(=O)CCCN(C)C)ccc2O[C@@H]1CN(C)S(=O)(=O)c1ccc(F)cc1	-0.3
C[C@H]1CN([C@@H](C)CO)C(=O)Cc2cc(NC(=O)c3ccncc3)ccc2O[C@@H]1CN(C)C(=O)NC1CCCCC1	0.7
Cc1ccc(S(=O)(=O)N(C)C[C@@H]2Oc3ccc(NC(=O)C4CC4)cc3C(=O)N([C@@H](C)CO)C[C@@H]2C)cc1	0.0
C[C@@H]1CN([C@H](C)CO)C(=O)c2cccc(NC(=O)Nc3ccc4c(c3)OCO4)c2O[C@H]1CN(C)S(=O)(=O)c1cccs1	-0.2
CNC[C@@H]1Oc2c(NS(=O)(=O)c3cn(C)cn3)cccc2C(=O)N([C@@H](C)CO)C[C@@H]1C	-1.0
C[C@H]1CN([C@@H](C)CO)C(=O)c2cc(NC(=O)c3ccncc3)ccc2O[C@H]1CN(C)Cc1ccc(Cl)c(Cl)c1	-0.8
COc1ccc(NC(=O)N(C)C[C@@H]2OCc3cn(nn3)CCCC(=O)N([C@@H](C)CO)C[C@@H]2C)cc1	-1.1
C[C@@H]1CCCCO[C@H](CN(C)Cc2ccc3c(c2)OCO3)[C@H](C)CN([C@@H](C)CO)C(=O)c2cc(NC(=O)NC3CCCCC3)ccc2O1	0.2
C[C@@H]1CN([C@@H](C)CO)C(=O)CCCn2cc(nn2)CO[C@@H]1CN(C)C(=O)Nc1ccccc1	-0.5
COc1ccc(S(=O)(=O)Nc2ccc3c(c2)C(=O)N([C@H](C)CO)C[C@@H](C)[C@@H](CN(C)CC2CCCCC2)O3)cc1	-0.2
CC(C)NC(=O)Nc1cccc2c1O[C@@H](CN(C)CC1CCCCC1)[C@H](C)CN([C@@H](C)CO)C2=O	0.8
Cc1noc(C)c1S(=O)(=O)N(C)C[C@@H]1OCCCC[C@H](C)Oc2ccc(NC(=O)Nc3ccc4c(c3)OCO4)cc2C(=O)N([C@H](C)CO)C[C@@H]1C	0.0
C[C@@H]1CN([C@@H](C)CO)C(=O)c2cccc(N(C)C)c2O[C@@H]1CN(C)S(=O)(=O)c1ccc(Cl)cc1	-0.2
Cc1noc(C)c1S(=O)(=O)N(C)C[C@@H]1Oc2ccc(NC(=O)NC3CCCCC3)cc2CC(=O)N([C@@H](C)CO)C[C@@H]1C	-0.6
C[C@H]1CCCCO[C@@H](CN(C)S(=O)(=O)c2ccccc2)[C@@H](C)CN([C@@H](C)CO)C(=O)c2cc(NC(=O)c3ccccc3)ccc2O1	-1.1
COc1ccc(NC(=O)O[C@H]2[C@H](OC(=O)Nc3ccccc3-c3ccccc3)[C@H](OC(=O)Nc3ccccc3-c3ccccc3)[C@@H](OC)O[C@@H]2CO)cc1	-2.0
C[C@@H]1CN([C@H](C)CO)C(=O)Cc2cc(NS(=O)(=O)c3cn(C)cn3)ccc2O[C@H]1CN(C)Cc1ccc(C(=O)O)cc1	-0.2
CNC[C@@H]1OCCCC[C@H](C)Oc2ccc(NC(=O)c3ccncc3)cc2C(=O)N([C@@H](C)CO)C[C@H]1C	-0.4
C[C@@H]1CN([C@@H](C)CO)C(=O)Cc2cc(NC(=O)C3CCCCC3)ccc2O[C@@H]1CN(C)S(C)(=O)=O	1.4
COc1ccc(S(=O)(=O)Nc2cccc3c2O[C@@H](CN(C)C(=O)Nc2ccccc2)[C@H](C)CN([C@@H](C)CO)C3=O)cc1	0.6
CN(C)c1ccc(/C=N/NC(=O)CCCCC(=O)NO)cc1	-0.3
C[C@@H]1CCCCO[C@H](CN(C)Cc2ccc(C(F)(F)F)cc2)[C@H](C)CN([C@@H](C)CO)C(=O)c2cc(NS(C)(=O)=O)ccc2O1	-0.7
C[C@@H]1CCCCO[C@@H](CN(C)C(=O)Nc2ccccc2)[C@@H](C)CN([C@@H](C)CO)C(=O)c2cc(NS(=O)(=O)c3ccccc3)ccc2O1	0.4
C[C@@H]1CN([C@@H](C)CO)C(=O)c2cccc(NC(=O)Nc3ccc(C(F)(F)F)cc3)c2O[C@H]1CN(C)Cc1ccc(C(=O)Nc2ccccc2N)cc1	-0.1
C[C@H](CO)N1C[C@H](C)[C@H](CN(C)C(=O)Nc2ccc(F)cc2)Oc2ccc(NS(=O)(=O)c3cccs3)cc2CC1=O	-1.3
C[C@@H]1CN([C@@H](C)CO)C(=O)c2cccc(NS(=O)(=O)c3ccc(F)cc3)c2O[C@@H]1CN(C)C	0.8
CC(C)(C)[C@H]1C=C(C(=O)NCc2ccccc2)O[C@@H](OCc2ccc(CO)cc2)C1	0.1
COc1ccc(NC(=O)N(C)C[C@@H]2OCc3cnnn3CCCC(=O)N([C@@H](C)CO)C[C@H]2C)c(OC)c1	-0.7
C[C@@H]1CN([C@H](C)CO)C(=O)c2cc(NC(=O)CCN3CCOCC3)ccc2O[C@H]1CN(C)C(=O)NC1CCCCC1	-0.1
C[C@@H]1CN([C@@H](C)CO)C(=O)c2cc(NS(=O)(=O)c3ccc(Cl)cc3)ccc2O[C@@H](C)CCCCO[C@H]1CN(C)C(=O)Nc1cccc2ccccc12	1.0
COc1cccc(-c2cnc3c(c2)C(=O)N([C@H](C)CO)C[C@H](C)[C@H](CN(C)C(=O)NC2CCCC2)O3)c1	-0.1
CC(C)NC(=O)N(C)C[C@H]1Oc2ccc(NS(C)(=O)=O)cc2C(=O)N([C@H](C)CO)C[C@@H]1C	0.1
C[C@H](CO)N1C[C@H](C)[C@H](CN(C)Cc2ccc(C(=O)Nc3ccccc3N)cc2)Oc2ccc(NS(=O)(=O)c3ccccc3)cc2C1=O	-0.1
COc1ccc(NC(=O)Nc2ccc3c(c2)CC(=O)N([C@@H](C)CO)C[C@@H](C)[C@@H](CN(C)Cc2ccc(Oc4ccccc4)cc2)O3)cc1	2.2
C[C@@H]1CN([C@H](C)CO)C(=O)Cc2cc(NC(=O)C3CC3)ccc2O[C@@H]1CN(C)C(=O)NC1CCCCC1	0.9
C[C@@H]1CN([C@@H](C)CO)C(=O)c2cc(NC(=O)Nc3ccc(C(F)(F)F)cc3)ccc2O[C@H]1CN(C)CC1CCCCC1	0.9
C[C@H]1CCCCO[C@H](CN(C)C(=O)Nc2ccc(C(F)(F)F)cc2)[C@@H](C)CN([C@@H](C)CO)C(=O)c2cc(NS(=O)(=O)c3ccc(F)cc3)ccc2O1	0.7
O=C(NCC(O)CO)[C@]1(Cc2ccccc2)N=C(c2ccc(OCCCO)cc2)O[C@@H]1c1ccccc1 (stereo partly drawn)	-0.1
C[C@@H]1CCCCO[C@@H](CN(C)C(=O)Nc2ccccc2)[C@H](C)CN([C@@H](C)CO)C(=O)c2cc(NS(=O)(=O)c3ccccc3)ccc2O1	-1.3
C[C@H]1CN([C@@H](C)CO)C(=O)Cc2cc(NS(=O)(=O)c3ccccc3)ccc2O[C@@H]1CN(C)S(=O)(=O)c1cn(C)cn1	1.1
Cc1ccc(S(=O)(=O)N(C)C[C@@H]2Oc3c(NS(=O)(=O)c4ccc(F)cc4)cccc3C(=O)N([C@@H](C)CO)C[C@@H]2C)cc1	0.1
C[C@@H]1CCCCO[C@@H](CN(C)Cc2ccccc2)[C@H](C)CN([C@@H](C)CO)C(=O)c2cc(NC(=O)Nc3ccc(C(F)(F)F)cc3)ccc2O1	-0.8
COc1ccc(NC(=O)N(C)C[C@H]2Oc3ccc(NC(=O)C4CC4)cc3CC(=O)N([C@@H](C)CO)C[C@H]2C)cc1	-0.2
O=C(NO)c1cccc(C(=O)N/N=C/C2=CCCCC2)c1	-0.5
CC(C)NC(=O)[C@@]1(c2ccc([N+](=O)[O-])cc2)CC(=O)N(CC23CC4CC(CC(C4)C2)C3)[C@@H]1c1ccc(CO)cc1	-0.2
Cc1noc(C)c1NC(=O)Nc1ccc2c(c1)CC(=O)N([C@H](C)CO)C[C@@H](C)[C@H](CN(C)C)O2	-1.2
C[C@H](CO)N1C[C@H](C)[C@H](CN(C)Cc2ccccc2)Oc2ccc(NS(=O)(=O)c3cccs3)cc2C1=O	-1.7
Cc1ccc(S(=O)(=O)Nc2ccc3c(c2)C(=O)N([C@H](C)CO)C[C@@H](C)[C@H](CN(C)C(=O)NC2CCCCC2)O3)cc1	-0.6
COc1ccc(CN(C)C[C@H]2Oc3c(NC(=O)Nc4ccc(C(F)(F)F)cc4)cccc3C(=O)N([C@H](C)CO)C[C@@H]2C)cc1	0.5
C[C@@H]1CCCCO[C@@H](CN(C)Cc2ccc(Cl)c(Cl)c2)[C@H](C)CN([C@@H](C)CO)C(=O)c2cc(NC(=O)CCC(F)(F)F)ccc2O1	-0.1
Cc1cc(C(=O)Nc2cccc3c2O[C@H](CN(C)C(=O)Nc2ccc(C(F)(F)F)cc2)[C@H](C)CN([C@@H](C)CO)C3=O)n(C)n1	-0.2
C[C@@H]1CN([C@@H](C)CO)C(=O)c2cccc(NC(=O)Nc3ccc4c(c3)OCO4)c2O[C@@H]1CN(C)C(=O)Nc1cccc2ccccc12	0.5
